Screening results (PubChem)
EPAC2 ant val = human EPAC2 antagonism, validation | 1.7% of 16,000 active | AID 1645886 | EPAC2 Rap1B BODIPY-GDP exchange, fluorescence | Potency, µM (series often up to 112 µM), inactives show at the highest dose activity, negative = inhibition, most hits filed as inhibitors; active means well fitted inhibition curve with a large enough effect; inconclusive means small, poorly fitted or top-dose-only effect; inactive means no such curve, though single readings can be large or run the other way;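 further: 100% = activation by cAMP agonist control; nearly all actives have a fitted effect of over 40% in size; the record reuses the description of the EPAC1 agonist screen; inactives centre near -10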
Target sequence (Q8WZA2 whole entry, looked up): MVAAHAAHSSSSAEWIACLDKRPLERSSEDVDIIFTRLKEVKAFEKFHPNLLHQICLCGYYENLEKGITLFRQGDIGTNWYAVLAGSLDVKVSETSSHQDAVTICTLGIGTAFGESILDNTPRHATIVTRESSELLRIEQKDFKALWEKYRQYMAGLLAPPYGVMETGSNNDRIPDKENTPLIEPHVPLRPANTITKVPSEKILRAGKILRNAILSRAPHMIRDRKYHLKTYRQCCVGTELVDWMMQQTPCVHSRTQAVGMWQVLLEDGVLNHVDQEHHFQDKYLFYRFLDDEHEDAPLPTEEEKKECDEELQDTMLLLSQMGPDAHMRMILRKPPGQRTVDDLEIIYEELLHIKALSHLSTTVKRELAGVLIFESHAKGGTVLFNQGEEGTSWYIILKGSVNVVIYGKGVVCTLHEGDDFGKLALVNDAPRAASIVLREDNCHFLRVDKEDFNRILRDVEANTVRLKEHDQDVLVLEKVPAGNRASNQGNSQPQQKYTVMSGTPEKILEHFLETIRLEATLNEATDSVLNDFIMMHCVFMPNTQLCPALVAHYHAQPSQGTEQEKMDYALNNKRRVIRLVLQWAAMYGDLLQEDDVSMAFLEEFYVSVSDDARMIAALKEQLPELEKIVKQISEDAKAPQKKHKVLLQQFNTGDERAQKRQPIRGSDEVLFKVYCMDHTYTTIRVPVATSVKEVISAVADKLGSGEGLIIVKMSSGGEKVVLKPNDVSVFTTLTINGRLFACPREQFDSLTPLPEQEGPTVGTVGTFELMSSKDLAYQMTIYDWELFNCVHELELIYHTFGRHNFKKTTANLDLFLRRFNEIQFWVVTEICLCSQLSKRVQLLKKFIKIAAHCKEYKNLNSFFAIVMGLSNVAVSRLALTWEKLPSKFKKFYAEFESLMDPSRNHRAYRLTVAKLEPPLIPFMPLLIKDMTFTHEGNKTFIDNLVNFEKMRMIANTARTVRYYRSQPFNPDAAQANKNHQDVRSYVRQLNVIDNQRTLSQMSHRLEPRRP
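Normalized against a 6.5 mM cAMP agonist control, compounds were tested on 100 nM EPAC2 exchanging Rap1B-bound BODIPY-GDP (250 nM) for 50 uM GDP. Fluorescence drop (ex 480, em 540 nm) was tracked at room temperature over 30 min at 5-min intervals.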
* hit, by the source's call; ? = inconclusive; & = joins results of further samples; [ ] = remark or other dose. Potency means the concentration at half of the fitted maximal effect.

SMILES | EPAC2 ant val
O=C(c1ccc2c(c1)OCO2)N(Cc1cc2cc3c(cc2nc1N1CCOCC1)CCC3)CC1CCCO1 (stereo unspecified) | -13%
N=C(N)S/C=C\C(=O)O | -11%&-8%
CC(C)C[C@H](NC(=O)[C@H](CCCCN)NC(=O)[C@H](CCCNC(=N)N)NC(=O)[C@H](C)NC(=O)[C@H](CO)NC(=O)[C@H](CCCCN)NC(=O)[C@H](CCCNC(=N)N)NC(=O)[C@H](C)NC(=O)CNC(=O)[C@@H](NC(=O)[C@H](Cc1ccccc1)NC(=O)CNC(=O)CNC(=O)[C@@H](N)Cc1ccccc1)[C@H](C)O)C(=O)N[C@@H](C)C(=O)N[C@@H](CC(N)=O)C(=O)N[C@@H](CCC(N)=O)C(=O)O | -28%[11.4 µM]
COc1ccc(-n2c(CNC(=O)c3ccc(OC)cc3OC)nnc2SC)cc1 | -13%
C[C@@](Cc1ccc(O)c(O)c1)(NN)C(=O)O | -11%&-16%
CCC(C(=O)NC(=O)NC(C)=O)c1ccccc1 (stereo unspecified) | 17%
O=c1c(-c2cccs2)nc2cncnc2n1Cc1ccc(F)cc1 | -18%
Cc1cnc(CNc2nc(-c3ccccc3Cl)nc3ccccc23)cn1 | -29%
Cc1c2oc3c(C)ccc(C(=O)NC4C(=O)NC(C(C)C)C(=O)N5CCCC5C(=O)N(C)CC(=O)N(C)C(C(C)C)C(=O)OC4C)c3nc-2c(C(=O)NC2C(=O)NC(C(C)C)C(=O)N3CCCC3C(=O)N(C)CC(=O)N(C)C(C(C)C)C(=O)OC2C)c(N)c1=O (stereo unspecified) | -11%[56.6 µM]
COc1cccc(C(=O)N(Cc2cc3ccc(C)cc3nc2N(C)C)C2CC2)c1OC | 14µM*
O=C(CN1Cc2ccccc2OC(c2ccsc2)C1)NCC1OCCc2ccccc21 (stereo unspecified) | -29%
C[N+](C)(C)CCOC(N)=O | 3%&-15%&45%
c1cncc(CNc2ccnc(-c3cccnc3)n2)c1 | 6%
COc1ccc(CNc2ncnc3ccc(-c4ccc(N(C)C)cc4)cc23)c(OC)c1 | -15%
COc1ccc2c(c1)OCC(Cc1ccc(OC)c(OC)c1)C2O (stereo unspecified) | ?
COc1ccccc1C1CN(Cc2cnn(C)c2)Cc2ccccc2O1 (stereo unspecified) | -3%
CCC(C)C(NC)C(=O)O (stereo unspecified) | -5%
N[C@H](C(=O)O)c1cccc(O)c1 | -6%&-25%&-24%
COc1cccc(Nc2ncc3nc(C)c(=O)n(-c4ccccc4)c3n2)c1 | -19%
Cc1cccc(CNCCn2cc(C(=O)Nc3ccccc3)nn2)c1 | -15%

Next section, overlapping the part above by 3 compounds.
SMILES | EPAC2 ant val
N[C@H](C(=O)O)c1cccc(O)c1 | -6%&-25%&-24%
COc1cccc(Nc2ncc3nc(C)c(=O)n(-c4ccccc4)c3n2)c1 | -19%
Cc1cccc(CNCCn2cc(C(=O)Nc3ccccc3)nn2)c1 | -15%
O=C(/C=C/c1ccc(O)cc1)c1c(O)cc(O)cc1O | -12%
CC(C)CN1CC[C@@]2(CCCN(S(=O)(=O)c3ccccc3)C2)C1 | -22%
Cc1ccccc1-c1nccc(Nc2ccc(F)cc2)n1 | ?
CCCCC(CC)CN=C(N)NC(N)=NCCCCCCN=C(N)NC(N)=NCC(CC)CCCC (stereo unspecified) | 56µM*
N[C@H](C(=O)O)[C@H](OCc1ccccc1)C(=O)O | -20%
CC(C(=O)O)c1ccc(-c2ccccc2)c(F)c1 (stereo unspecified) | -10%[56.6 µM]
CNc1ccnc(-c2ccccc2C)n1 | -10%
O=C1C[C@H]2C=CCc3cccc(c32)CN1Cc1ccc(F)cc1 | ?
COC(=O)c1ccc(CN2CCOc3ccc(C(O)c4cccnc4)cc3C2)cc1 (stereo unspecified) | -24%
Cn1cccc1C(=O)N1CCC2(CC1)CN(Cc1ccc(C#N)cc1)C2 | -17%
COc1cc2[nH]c(C)c(CCN3CCN(c4ccccc4)CC3)c2cc1OC | 1%
Nc1ncnc2c1ncn2C1OC(CO)C(O)C1O (stereo unspecified) | -8%&-26%
O=C(c1ccc2c(c1)OCO2)N1CCOc2ccc(CN3CCC(Oc4cccnc4)CC3)cc2C1 | 2%
Clc1ccc[n+](CCCCC[n+]2cccc(Cl)c2)c1 | -12%
CCC1CN(CCNC(=O)c2scc3c2OCCO3)Cc2cc(OC)ccc2O1 (stereo unspecified) | ?
Cc1cc(C(=O)Nc2ccccc2-c2nc(CNC(=O)c3ccc(F)cc3F)c(C)o2)c(C)o1 | 9%
O=S(=O)(O)c1ccc(Nc2ncnc3c2ncn3[C@@H]2O[C@H](CO)[C@@H](O)[C@H]2O)cc1 | -2%
Cc1cnc(-n2ncc(C(=O)NCC(C)(C)N3CCOCC3)c2C(C)C)nc1-c1ccc(F)cc1 | 4%
COc1ccc(-n2c(=O)c(-c3ccc(F)cc3)nc3cnc(OC)nc32)cc1 | -10%
O=c1cnc2cnc(Nc3ccccc3)nc2n1Cc1cccs1 | -17%
COc1cc([C@@H]2c3cc4c(cc3C(O[C@@H]3O[C@@H]5CO[C@@H](C)O[C@H]5[C@H](O)[C@H]3O)C3COC(=O)[C@@H]32)OCO4)cc(OC)c1OP(=O)(O)O (stereo partly specified) | 20%&14%
N[C@@H](CC(=O)O)C(=O)O | 10%&-10%&-20%
COc1ccc(CNc2ncnc3ccc(-c4cccnc4)cc23)c(OC)c1 | ?
Cc1cnc(CNc2ncnc3ccc(-c4ccccc4Cl)cc23)cn1 | ?
OC1(c2cccnc2)CCN(Cc2ccc3c(c2)CN(Cc2ccc(F)c(F)c2)CCO3)CC1 | -5%
COc1ccccc1CN1CC2(CCN(S(C)(=O)=O)CC2)C1 | -19%
O=C(OC1C[C@H]2CC[C@@H](C1)[N+]21CCCC1)C(O)(c1ccccc1)c1ccccc1 (stereo partly specified) | 0%
Cn1cc(/C=C/c2ccc3ccccc3n2)c2ccccc21 | -8%
COc1ccc(NC(=O)N2CC[C@@]3(CCCN(C(=O)c4cc(C(F)(F)F)cc(C(F)(F)F)c4)C3)C2)cc1 | ?
CC(=O)N/N=C/c1ccc([N+](=O)[O-])o1 | -10%
C[C@H]1C=C2C=C[C@H](C)[C@H](CC[C@@H]3C[C@@H](O)CC(=O)O3)[C@H]2[C@@H](OC(=O)[C@@H](C)CCO)C1 | 56µM*
O=C(NC1CCC(=O)N(CCOc2ccccc2)CC1)OCc1ccccc1 (stereo unspecified) | -27%
COc1cc(OC)c(OC)cc1CN1CCC(n2cc(C(=O)N3CCCCC3)nn2)CC1 | -28%
CN(C)c1ncc2ncc(=O)n(Cc3ccc(F)cc3)c2n1 | ?
CN(C)CCCN1c2ccccc2Sc2ccc(C(F)(F)F)cc21 | -1%&-27%
CCCC[n+]1c(C)ccc2ccccc21 | -19%
COc1ccc(F)c(CN2CCOc3ccc(CN4CCC(O)(c5cccnc5)CC4)cc3C2)c1 | -8%
COc1ccccc1C(=O)N1CCCC(c2nc(SCCN3CCOCC3)ncc2C)C1 (stereo unspecified) | -2%
COc1ccccc1N1CCN(C[C@@H](O)COc2cccc3ccccc23)CC1 | ?
NCC1CCC(C(=O)O)CC1 (stereo unspecified) | -8%[56.6 µM]
O=C(O)c1cc(N(Cc2ccccc2O)Cc2cc(O)ccc2O)ccc1O | -17%
COc1ccccc1C(=O)N[C@@H]1c2ccccc2C2(CCN(C(=O)c3ccnn3C)CC2)[C@H]1OC | -6%
Nc1[nH]nc2nc3ccccc3nc12 | ?
O=C(C[N+]12CN3CN(CN(C3)C1)C2)c1ccc(I)cc1 | -17%
O=C(NCc1nnc2n1CCN(C(=O)/C=C/c1ccccc1)CC2)c1cccc(F)c1 | 1%
COC(=O)C1CCN(Cc2ccc3c(c2)CN(C(=O)c2cc(-c4ccc(C)o4)[nH]n2)CCO3)CC1 | ?
c1cncc(OC2CCN(Cc3ccc4c(c3)CN(Cc3ccc5c(c3)OCO5)CCO4)CC2)c1 | ?
COc1ccc(-n2c(=O)c(-c3cccc(F)c3)nc3cncnc32)cc1 | 1%
O=C(COc1ccc(Cl)cc1)OCCNC12CC3CC(CC(C3)C1)C2 | -5%
CN1CCC(=O)N([C@H](CO)Cc2ccccc2)CC1 | 2%
CCCCCC(CC(=O)O)C(=O)O (stereo unspecified) | -7%
CN1CCN(c2ncc3nc(CCc4ccccc4)c(=O)n(CCC#N)c3n2)CC1 | -13%
COc1cc(=O)n2c(c1C(=O)N(C)Cc1ccsc1)CCN(Cc1c(C)nc3sccn13)CC2 | 3%
COc1ccc(Oc2ncc3ncc(=O)n(CCc4ccccc4)c3n2)cc1 | -21%
CC1=C(C(=O)OCc2cc(C)on2)N2C(=O)[C@@H](NC(=O)OCc3cc(C)on3)[C@H]2SC1 | -30%
CCC1(C2CCN(C(=O)c3cc(F)ccc3F)CC2)NC(=O)N(CCc2scnc2C)C1=O (stereo unspecified) | 6%
CCCCCOc1ccc(C2SC(=O)NC2=O)cc1OCC (stereo unspecified) | ?
Cc1nc2cnc(Oc3cccc(Cl)c3)nc2n(C2CC2)c1=O | -43%
CCC1CN(CCNC(=O)c2cc3ccccc3oc2=O)Cc2cc(OC)ccc2O1 (stereo unspecified) | -23%
COc1ccccc1CN1CCC2(CC1)CCN(C(=O)c1cc(C(F)(F)F)cc(C(F)(F)F)c1)CC2 | -28%

Among those listed so far, 5 contain a thiophene ring, fused or not.
SMILES | EPAC2 ant val
O=c1c(-c2cccs2)nc2cncnc2n1Cc1ccc(F)cc1 | -18%
O=C(CN1Cc2ccccc2OC(c2ccsc2)C1)NCC1OCCc2ccccc21 (stereo unspecified) | -29%
CCC1CN(CCNC(=O)c2scc3c2OCCO3)Cc2cc(OC)ccc2O1 (stereo unspecified) | ?
O=c1cnc2cnc(Nc3ccccc3)nc2n1Cc1cccs1 | -17%
COc1cc(=O)n2c(c1C(=O)N(C)Cc1ccsc1)CCN(Cc1c(C)nc3sccn13)CC2 | 3%

The main list resumes; the four compounds before the break are reprinted first.
SMILES | EPAC2 ant val
CCCCCOc1ccc(C2SC(=O)NC2=O)cc1OCC (stereo unspecified) | ?
Cc1nc2cnc(Oc3cccc(Cl)c3)nc2n(C2CC2)c1=O | -43%
CCC1CN(CCNC(=O)c2cc3ccccc3oc2=O)Cc2cc(OC)ccc2O1 (stereo unspecified) | -23%
COc1ccccc1CN1CCC2(CC1)CCN(C(=O)c1cc(C(F)(F)F)cc(C(F)(F)F)c1)CC2 | -28%
COc1ccc(SCCN2CC[C@@H](C(C)(C)C)CCC2=O)cc1 | ?
COCCn1c(=O)c(-c2ccc(F)cc2)nc2cnc(N(C)C)nc21 | 13%
CC(C)NC[C@@H](O)COc1cccc2ccccc12 | -6%&18%&-17%&-14%
CC(C)[C@H](NC(=O)OCc1ccccc1)C(=O)N[C@H](C=O)Cc1ccccc1 | -25%
N#Cc1cccc(-c2cncnc2NCc2cccs2)c1 | -9%
O=C(NCc1nnc2n1CCN(Cc1ccc(C(F)(F)F)cc1)CC2)c1ccccn1 | 6%
CCC(=O)OCC(=O)[C@@]1(OC(=O)CC)[C@@H](C)C[C@@H]2[C@H]3CCC4=CC(=O)C=C[C@]4(C)[C@@]3(F)[C@@H](O)C[C@@]21C | 12%
O=c1cc(-c2ccccc2)oc2cc(O)cc(O)c12 | -4%&-14%&-23%
COCCn1c(=O)c(-c2cccc(C#N)c2)nc2cnc(Oc3cccc(Cl)c3)nc21 | 2%
COC(=O)N1CCC2(CCCN(C(=O)Nc3cccc(F)c3)C2)CC1 | -6%
CS(=O)(=O)Nc1cccc(-c2nc(N3CCOCC3)c3ccccc3n2)c1 | -7%
CN1CCC(OC(c2ccccc2)c2ccccc2)CC1 | -10%
Cc1ccnc2ccc([N+](=O)[O-])cc12 | ?
COc1ccccc1CNc1ncnc2ccc(-c3ccc4c(c3)OCO4)cc12 | -18%
CC(C)(C)NCC(O)c1cc(O)cc(O)c1 (stereo unspecified) | -16%&-11%&-10%
COc1cc(O)c(C(=O)/C=C/c2ccc(O)c(OC)c2)c(OC)c1 | -13%
CC(C)[N+](C)(C)CC(O)COc1cccc2ccccc12 (stereo unspecified) | 4%
Cc1cnc(SCC2CCCO2)nc1C1CCCN(Cc2cc3c(cc2Cl)OCO3)C1 (stereo unspecified) | -14%
COc1cc(-c2cc(C)c3c(OC)ccc(OC)c3n2)cc2c1OCCN(Cc1cn(C)nc1C)C2 | -9%
COC(=O)N1CCC[C@@]2(CCN(C(=O)Nc3ccc(OC)cc3)C2)C1 | -5%
c1ccc(CNc2ncncc2-c2ccc3c(c2)OCO3)cc1 | ?
COCC(=O)Nc1cc(C(=O)N2CCc3sccc3C2)c2c(c1)nc(-c1ccncc1)n2C | -1%
C[C@@]12CCC3c4ccc(O)cc4CCC3C1CCC2O (stereo partly specified) | -20%
Cc1ccccc1-c1cccc(CN2CCc3nnc(C(C)NC(=O)c4cccnc4)n3CC2)c1 (stereo unspecified) | -13%
FC(F)(F)c1cc(CO[C@H]2CCCN[C@H]2c2ccccc2)cc(C(F)(F)F)c1 | -2%
COc1ncc2nc(C)c(=O)n(Cc3cccs3)c2n1 | -22%
COc1ccccc1CN1CC[C@@]2(CCCN(C(=O)c3cccn3C)C2)C1 | -6%
CC(=O)c1ccccc1-c1ccc2c(c1)CC(CNC(=O)c1cc(C)on1)O2 (stereo unspecified) | -20%
COCc1ccc(CN2Cc3cc(Cl)ccc3OC(C)C2)o1 (stereo unspecified) | -17%
COCCNc1nc(-c2ccoc2)nc2ccccc12 | -22%
N=C(N)n1cccn1 | -6%
Cc1ccc(/C(=C\CN2CCCC2)c2ccccn2)cc1 | -19%&-9%&8%
CNc1ncncc1-c1ccccc1CN(C)C | -4%
CN(Cc1ccon1)C(=O)c1cnn(-c2ncc3c(n2)-c2ccccc2CCC3)c1C1CC1 | 0%
O=C(c1c(O)c2ccc(Cl)cc2[nH]c1=O)C1CC1 | 2%&-22%

The list is partial; the hit share may differ from the screen's.
